Compound activity: PubChem, several laboratories
RGS16-Gao: regulators of human RGS16-Galphao interaction. bead-based flow cytometry RGS16-Galphao binding, fluorescence; actives lie on both sides. 220,000 tested, 0.38% active. O15492+P09471. binding response (% of control), % at 10 µM;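 active means below 25% or above 175%, edge rows of some plates excepted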;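 further: Galphao activated by GDP with aluminum fluoride before binding; 100% = wells without compound and 0% = beads without RGS; some results beyond the cut were filed as inactive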
Target sequence (O15492 whole entry, looked up): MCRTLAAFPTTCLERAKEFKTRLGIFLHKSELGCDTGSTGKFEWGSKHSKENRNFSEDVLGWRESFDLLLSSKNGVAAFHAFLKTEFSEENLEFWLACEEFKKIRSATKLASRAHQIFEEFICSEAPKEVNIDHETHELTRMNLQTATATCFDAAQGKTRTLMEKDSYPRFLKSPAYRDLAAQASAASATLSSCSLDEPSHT
Target sequence (P09471 whole entry, looked up): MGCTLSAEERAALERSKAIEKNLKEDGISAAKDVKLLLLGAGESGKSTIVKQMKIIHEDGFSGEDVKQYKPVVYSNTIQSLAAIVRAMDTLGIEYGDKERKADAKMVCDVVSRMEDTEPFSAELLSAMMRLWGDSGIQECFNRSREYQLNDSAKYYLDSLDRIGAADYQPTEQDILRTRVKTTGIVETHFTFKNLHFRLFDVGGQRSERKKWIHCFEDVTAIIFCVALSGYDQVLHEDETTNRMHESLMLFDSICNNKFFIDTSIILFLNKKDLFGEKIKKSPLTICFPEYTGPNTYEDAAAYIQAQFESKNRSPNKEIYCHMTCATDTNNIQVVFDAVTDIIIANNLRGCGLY
HSV replic up: HSV replication enhancement; HSV replication augmentation in cells, fold increase; maximum fold increase; 220,000 tested, 0.005% active;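 active means peak rise of 1.5-fold or more in the series; inconclusive means self-fluorescent or not available for retest; tested in PC3 cells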;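 further: first round at 10 µM; read as green reporter fluorescence; hits show the peak of a series up to 25 µM; 1 = signal of infected wells without compound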
Insulin prom inh: TRM-6 insulin promoter activity inhibition; TRM-6 cells (human fetal islet line), insulin promoter-eGFP reporter, imaging; reporter expression induced with tamoxifen; inhibition, % at 2 µM; 130,000 tested, 0.9% active; AID 1273;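 active means inhibition above the mean plus 3 SD, with well images judged a real hit on visual review, cut at about 60% in these data, passing the limit was not always enough; inconclusive means inhibition over the cutoff but images rejected on review; inactive means inhibition not above the cutoff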
PKD1 inh: blocks activity of human protein kinase D1 | PKD1 kinase fluorescence polarization assay | inhibition, %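 (about 10 µM by stock and volumes)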 | 200,000 tested, 0.056% active | AID 797;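 active means inhibition of 50% or more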;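 further: controls were vehicle for no effect and a reference inhibitor for full effect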
GALR2 agonist: agonists of human galanin receptor 2 (GALR2); activation, %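 (tested at 5 µM)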; GALR2-expressing cells, agonist activation read-out; AID 803; O43603; 140,000 tested, 0.48% active;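 active means above mean plus 3 SD of all compounds, about 5% in these data, not always enough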;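 further: 0% = vehicle buffer wells and 100% = reference agonist at full effect; tested in CHO reporter cells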
Target sequence (O43603 whole entry, looked up): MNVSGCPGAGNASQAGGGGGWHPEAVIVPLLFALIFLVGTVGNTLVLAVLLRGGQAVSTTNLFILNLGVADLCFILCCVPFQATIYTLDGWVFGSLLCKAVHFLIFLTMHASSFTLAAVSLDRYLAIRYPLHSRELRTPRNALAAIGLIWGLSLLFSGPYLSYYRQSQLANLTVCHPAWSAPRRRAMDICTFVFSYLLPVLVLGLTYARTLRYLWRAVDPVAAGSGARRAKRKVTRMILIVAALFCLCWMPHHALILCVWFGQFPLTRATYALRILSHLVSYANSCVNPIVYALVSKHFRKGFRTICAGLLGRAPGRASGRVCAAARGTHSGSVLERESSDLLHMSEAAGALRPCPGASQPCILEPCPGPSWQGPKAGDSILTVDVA
Insulin prom inh cell count: also measured in Insulin prom inh; calls as there; normalized cell count, %; measured here: cell count, toxicity; reference of the scale not given here;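 cells exposed to compound for 48 h; stained nuclei by imaging scaled within each plate; lower means fewer cells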
HSV replic up primary fold: second read-out of HSV replic up, no call of its own (marks repeat the call); fold increase; compound at 10 µM; measured here: primary screen fold increase 10 uM; tested in PC3 cells;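 GFP signal in the first replicate; 1 = infected wells without compound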
* marks the source's active call; other numbers are inactive results; i = inactive; ? = inconclusive; nt = no result given; & = joins results of further samples; [ ] = another dose, or the depositor's remark. A portion of the library (hit frequency here may not be typical).

SMILES	RGS16-Gao	HSV replic up	HSV replic up primary fold	Insulin prom inh	Insulin prom inh cell count	PKD1 inh	GALR2 agonist
CCOC(=O)c1c(C)n(Cc2ccco2)c2ccc(O)cc12	99	i	0.99	31	77	1	-2.1
CCN1CCN(c2cn[nH]c(=O)c2Cl)CC1	96	i	1.1	nt	nt	0	nt
CC(=O)Nc1cc(C(=O)N2CCC3(CC2)OCCO3)ccc1Sc1ccc(C)cc1	94	i	0.88	-71	109	-11	-1.8
Cc1nc2c(-c3ccc(F)cc3)c(C)nn2c(C)c1CCC(=O)N1CCC2(CC1)OCCO2	67	i	0.91	nt	nt	3	-2.0
Oc1ccc(C2NCc3ccccc3-n3cccc32)cc1Cl (configuration not stated)	96&97	i	0.86&1	14	144	-8&1	-1.0
Cc1cccc(N/N=C(\C(N)=O)C2=NC(C)(C)Cc3ccccc32)c1	92	i	0.75	10	121	-3	-1.4
O=C(C1CCC(=O)N1C1CCCCC1)N1CCC2(CC1)OCCO2 (configuration not stated)	196	nt	nt	nt	nt	-5	-3.5
CC1(C)CN=C(Nc2ccc(F)c(Cl)c2)S1	105	i	0.84	nt	nt	nt	nt
Cc1ccc(N2CCN(CCc3ccccc3)CC2)cc1	107	i	0.92	-14	49	-4	0.6
CCCCCn1c(NC(=O)c2ccco2)c(C(=O)OCC)c2nc3ccccc3nc21	97	i	1.2	-21	106	-4	-0.9
COc1ccc(Cl)cc1C(=O)C1CCCN(Cc2cnc(C)s2)C1 (configuration not stated)	103	i	1.1	nt	nt	-3	nt
CCOC(=O)C1=C(C)N(C)C2(C)CC1c1ccccc1O2 (configuration not stated)	97	i	1.1	nt	nt	2	-1.9
COc1ccc(C2SCC(=O)Nc3c2c(=O)[nH]n3C2CCCCCC2)cc1 (configuration not stated)	104	i	0.87	nt	nt	8	-0.1
CC(C)(C)n1c(O)c(C=Nc2ccc3c(c2)CCC3)c(=O)[nH]c1=O	102	i	0.99	nt	nt	2	-1.2
O=c1c2ccccc2nc(-c2ccco2)n1-c1ccccn1	105	i	0.99	-3	87	2	0.1
Cc1cc(O)c(CN2CCN(c3ccccc3)CC2)cc1C	99	i	1	-9	161	3	-1.6
COc1ccc(Cc2c(O)[nH]c(=O)[nH]c2=O)c(OC)c1	100	i	0.97	nt	nt	nt	nt
O=C(Cc1ccccc1[N+](=O)[O-])N1CCN(Cc2ccc3c(c2)OCO3)CC1	101	i	0.86	nt	nt	0	nt
Cc1cccc(OP(=O)(Oc2ccccc2)OC(c2ccccc2)C(F)(F)F)c1 (configuration not stated)	113	i	0.96	-50	95	-5	-0.8
N#Cc1c(/N=C/c2ccc(O)cc2O)sc2c1C1CCN2CC1	106	i	1	8	167	0	-0.1
O=C1NC(=O)N(CCC2=CCCCC2)C(=O)/C1=C/c1ccc(O)cc1	99	i	1	-12	149	-1	-0.5
Cc1sc2nc(COC(=O)Cc3ccccc3)[nH]c(=O)c2c1C	94	i	0.78	8	91	-1	-1.0
CCCCOc1nc2ccccc2c(=O)n1-c1ccccc1	102	i	1.1	-3	83	-9	-0.7
Cn1cc(C(=O)N2CCC3(CC2)OCCO3)c2c3ccccc3n(C)c2c1=O	78	i	0.97	5	71	-11	-1.2
O=C(COc1ccc2ccccc2c1)N1CCN(CC2CC3C=CC2C3)CC1 (configuration not stated)	110	i	1	-23	42	3	-0.8
O=C1CSC2N1CCNC21CCCCC1 (configuration not stated)	98	i	1	nt	nt	-1	-1.2
C[n+]1ccc(-c2ccncc2)cc1	105	i	0.87	nt	nt	-8	-0.2
COc1cccc(N2C(=O)CC(=O)NC2=O)c1	103	i	0.88	nt	nt	-2	-0.5
COc1cccc(-n2c(O)c(C=NCCN3CCOCC3)c(=O)[nH]c2=O)c1	104	i	1	nt	nt	-3	-0.8
COc1ccccc1-n1c(O)c(C=NCCCn2ccnc2)c(=O)[nH]c1=O	102	i	0.97	nt	nt	-3	-2.3
CN1CCN(Cc2ccc(N)cc2)CC1	115	i	1.1	nt	nt	-10	nt
CC(CCc1ccccc1)NCCC#N (configuration not stated)	97	i	0.9	nt	nt	nt	nt
N[C@@H](Cc1c[nH]c2ccccc12)c1nnc(SCc2c(F)cccc2Cl)o1	94	i	0.75	-18	81	-4	-0.6
COc1ccccc1N1CCN(Cc2cc(C)c(C)cc2O)CC1	103	nt	nt	-23	98	-7	-0.7
CC1CN(c2cc([N+](=O)[O-])ccc2Cl)CC(C)N1 (configuration not stated)	100	i	0.89	nt	nt	-4	nt
CC(Cc1ccccc1Sc1ccccc1)N(C)C (configuration not stated)	94	i	0.81	-46	92	-2	-0.1
Cn1c(=O)n(CC(=O)N2CCC3(CC2)OCCO3)c(=O)c2ccccc21	103	i	0.94	nt	nt	-9	-1.7
Cc1ccc(-c2nc3ccccc3c(=O)n2-c2cccnc2)cc1	91	i	1	-15	104	-8	-0.2
CC(=O)NC(Cc1ccc(N(CCCl)CCCl)cc1)C(=O)NCC(=O)NCC(=O)O (configuration not stated)	109	i	0.94	nt	nt	2	nt
CCCC(=O)NC(Oc1ccc(C(C)=O)cc1)C(Cl)(Cl)Cl (configuration not stated)	89	i	1.1	nt	nt	-4	nt
CCOC(=O)[C@]1(C#N)[C@@H]2C=CC(C(C)=O)=CN2[C@@H](C(N)=O)[C@@H]1c1ccsc1	93	i	1.1	-19	93	0	-2.6
Cc1ccc2c(c1)CC1(CN2C)C(=O)NC(=O)N(C(C)C)C1=O (configuration not stated)	104	i	0.93	39	124	-3	-2.1
COC(=O)C1=C(C)OC(N)=C(C#N)C12C(=O)Nc1ccccc12 (configuration not stated)	115	i	0.92	-14	171	-5	nt
O=Cc1cn(Cc2cccc(F)c2)c2ccccc12	111	i	1.1	8	57	-15	-2.3
Cc1ccc(-c2nc(N(C)C3CCN(C)CC3)c3ccccc3n2)cc1	94	i	0.68	-16	35	2	-3.8
CC(C)N(CC#CCC1(O)c2ccccc2-c2ccccc21)C(C)C	180*[activator]	i	1.1	51	43	-15	-0.9
O=C(Nc1ccc(F)cc1F)c1cccnc1Oc1cccc(C(F)(F)F)c1	105	i	0.99	-65	83	-10	-1.9
Nc1nonc1OCCCCOc1nonc1N	104	i	0.98	nt	nt	-1	nt

Part of the list above, set out differently:
mol,RGS16-Gao,HSV replic up,HSV replic up primary fold,Insulin prom inh,Insulin prom inh cell count,PKD1 inh,GALR2 agonist
O=C(Nc1ccc(F)cc1F)c1cccnc1Oc1cccc(C(F)(F)F)c1,105,i,0.99,-65,83,-10,-1.9
Cn1c(=O)n(CC(=O)N2CCC3(CC2)OCCO3)c(=O)c2ccccc21,103,i,0.94,nt,nt,-9,-1.7
Nc1nonc1OCCCCOc1nonc1N,104,i,0.98,nt,nt,-1,nt
Cc1ccc(-c2nc3ccccc3c(=O)n2-c2cccnc2)cc1,91,i,1,-15,104,-8,-0.2
CCCC(=O)NC(Oc1ccc(C(C)=O)cc1)C(Cl)(Cl)Cl (configuration not stated),89,i,1.1,nt,nt,-4,nt

(listing goes on)
SMILES	RGS16-Gao	HSV replic up	HSV replic up primary fold	Insulin prom inh	Insulin prom inh cell count	PKD1 inh	GALR2 agonist
Fc1ccc(C2N3CCCN23)cc1 (configuration not stated)	104	i	0.99	nt	nt	nt	nt
Cc1ccc(-n2c(O)c(C=NC3CCCC3)c(=O)[nH]c2=O)c(C)c1	107	i	0.99	-45	43	-5	0.8
O=[P+](Cc1ccccc1)Cc1ccccc1	103	i	1.1	-117	101	-7	-2.1
CCCCn1c(O)c(C(CC)=NCCc2ccccc2)c(=O)[nH]c1=O	88	i	0.99	-17	66	-5	-1.0
O=C1/C(=C/c2ccncc2)N2CCC1CC2	93	i	1	nt	nt	-9	nt
O=C(C1CCN(S(=O)(=O)N2CCOCC2)CC1)N1CCC2(CC1)OCCO2	91	i	1.2	nt	nt	-9	-1.3
COc1ccc(OC)c(CN2CCN(C(=O)COc3cccc(C)c3)CC2)c1	102	i	0.85	-64	107	-12	0.4
C[N+]1=C(/C=C/Nc2ccccc2)C(C)(C)c2ccccc21	103	i	1.1	nt	nt	-3	-0.4
COc1ccccc1-n1c(O)c(/C=N/N2CCCCC2)c(=O)n(-c2ccccc2OC)c1=S	99	i	1	nt	nt	nt	nt
CC(C)OC12Oc3ccccc3C=C1N1CCC2CC1 (configuration not stated)	105	i	1.1	14	108	-16	0.3
CC(C)n1c(=O)c(C=Nc2ccc(S(N)(=O)=O)cc2)c(O)n(Cc2ccco2)c1=O	35	nt	nt	43	93	1	0.7
O=C1NC(=O)C(=Cc2ccc3ccccc3c2)C(=O)N1	100	i	1.1	nt	nt	nt	nt
COc1cccc(-c2nc(CS(=O)CC(=O)N3CCC4(CC3)OCCO4)c(C)o2)c1 (configuration not stated)	105	nt	nt	62	65	-2	-0.7
COc1ccccc1CCNCc1ccc(OC)c(OC)c1OC	109	i	1	13	97	2	nt
C/C(=N\NC(=O)c1ccccc1O)c1c(O)n(Cc2ccccc2)c(=O)[nH]c1=O	98	i	0.86	nt	nt	nt	nt
Cc1ccc(-c2ccc(=O)n(CC(=O)N3CCC4(CC3)OCCO4)n2)cc1	100	i	0.91	-80	112	1	nt
CC1=NN(c2ccccc2)C(=O)C1/C=C1\C(=O)NC(=O)N(c2cc(C)cc(C)c2)C1=O (configuration not stated)	98	i	0.95	12	102	-4	-2.4
CCC(C)C12CN3CCN(CC(C)(C3)C1O)C2 (configuration not stated)	106	i	1	5	90	-9	nt
Cc1cc(NC(=O)CCl)no1	106	i	0.86	7	115	3	nt
Cc1ccc(N)c(C(=O)c2ccccc2)c1	98	i	1	57	93	0	-1.5
Cn1c(=O)c2c(ncn2CCCl)n(C)c1=O	104	i	1.1	nt	nt	11	nt
O=C1/C(=C\c2ccncc2)N2CCC1CC2	103	i	0.92	nt	nt	nt	nt
CCc1ccc(N2C(=O)NC(=O)/C(=C\C=C\c3ccco3)C2=O)cc1	76	?	nt	nt	nt	nt	nt
Nc1ccccc1C(=O)OCC(=O)Nc1ccc(Br)cc1F	100	i	0.88	nt	nt	6	-0.8
CCc1cccc2c(C#N)cn(CC(=O)N3CCOCC3)c12	101	i	1	-23	112	-7	-1.3
N=C1c2ccccc2CN1c1ncccn1	105	i	0.91	0	123	-1	nt
Clc1ccc(CNC2CN3CCC2CC3)cc1 (configuration not stated)	90	i	0.9	-375	62	9	0.4
Cc1ccccc1C(O)(Cc1ccccc1)C1CN2CCC1CC2 (configuration not stated)	192	i	1	19	148	1	-2.0
O=C(Cc1cc(=O)[nH]c(=O)[nH]1)N1CCN(CCO)CC1	102	i	0.91	nt	nt	-1	nt
C=CC[N+]1(C)C2CCC1CC(O)C2 (configuration not stated)	97	i	0.91	nt	nt	6	nt
CN[C@@H]1C[C@@H](c2ccc(Cl)c(Cl)c2)c2ccccc21	102	i	0.72	nt	nt	nt	nt
CC(C)c1ccc(N2C(=O)NC(=O)/C(=C/C=C/c3ccco3)C2=O)cc1	91	?	nt	nt	nt	-9	-0.5
O=P(Nc1cccnc1)(Oc1ccccc1)Oc1ccccc1	91	i	1	-22	107	-14	-0.6
Cc1ccc(C)c(NC(=O)CSc2nnc([C@@H](N)Cc3c[nH]c4ccccc34)o2)c1	101	i	0.68	nt	nt	nt	nt
CCCNS(=O)(=O)c1ccc(OCC(=O)N2CCN(C)CC2)cc1	104	nt	nt	-438	26	-3	-1.1
COc1ccccc1N(CC(=O)NC1CCCCC1)C(=O)c1cnn(C(C)C)c1	101	i	0.8	-20	99	-5	-0.4
CC1(C)C2SCC(=O)N2CCN1CC(=O)NN (configuration not stated)	102	i	0.9	nt	nt	nt	nt
Cc1c(NC(=O)C(C)OC(=O)Cc2ccccc2)c(=O)n(-c2ccccc2)n1C (configuration not stated)	96	i	0.96	-73	114	-3	-2.0
CCOC(=O)C1(CCc2ccccc2)CCN(Cc2ccco2)CC1	99	i	1.1	nt	nt	-2	nt
O=C(C1CCN(c2nc3ccc(Br)cc3s2)CC1)N1CCC2(CC1)OCCO2	97	i	0.93	nt	nt	-1	0.1
Cc1cccc(NP(C)(=O)c2nc3c(s2)CCCC3)c1 (configuration not stated)	97	i	0.96	44	125	-4	-1.5
CC(=O)OC1N=C(c2ccccc2)c2ccccc2NC1=O (configuration not stated)	109	i	0.94	7	136	-2	-0.8
CC(Cl)(Cl)/C(=N/P(=S)(N1CCOCC1)N1CCOCC1)N1CCOCC1	93	i	0.92	nt	nt	nt	nt
CN(C)C(Cc1ccc(C#N)cc1)C(=O)c1ccccc1 (configuration not stated)	114	i	1.1	nt	nt	-2	0.5
